thrombin 1536 – thrombin (human) inhibition | P00734 | alpha-thrombin, Boc-VPR-AMC fluorogenic substrate cleavage | inhibition, % at 5 µM | hit rate 0.26% among 220,000 | AID 1046;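 active = inhibition at or above 40%; inactive = inhibition below 40%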;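 note: 0% = enzyme with no compound and 100% = wells without enzyme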
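Assay system: human alpha-thrombin enzyme. Reagent: Boc-VPR-AMC substrate, 15 µM final. Compound dosing: one concentration per compound, 5 µM, with 0.2% DMSO. Incubation: room-temperature reaction. Technique: AMC fluorescence, 355/460 nm. Measure: % inhibition relative to enzyme controls and enzyme-free blanks.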
Rad51 HR inh – blocks human Rad51 in homologous recombination | hRad51 DNA strand exchange, fluorescence dequenching | Q06609 | AID 1385 | hit rate 0.085% among 200,000 | inhibition, % at 10 µM;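 active = inhibition above 40% at the single screening dose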;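 note: 0% = DMSO control wells and 100% = blanks with heterologous ssDNA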
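Material: hRad51 filaments on single-stranded DNA; Reagent: Donor/quencher-labelled 47-bp dsDNA substrate; Compound: 10 µM final, single point; Schedule: 37 °C 15-min filament assembly, 30-min compound preincubation, 15-min exchange; Technique: FRET fluorescence, excitation 485 nm, emission 520 nm; Benchmarks: control wells and blank wells on each plate.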
Calpain2 inh – inhibitors of pig calpain II; hit rate 0.37% among 220,000; AID 1236; inhibition, % at 16 µM; purified calpain II, fluorogenic peptide substrate, 30 min;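 active = inhibition above about 50%, limit read from the data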
KLK5 inh – blocks human kallikrein 5 protease activity; Q9Y337; recombinant hK5, fluorogenic AMC substrate cleavage; inhibition, % at 5 µM; hit rate 0.59% among 210,000;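 active = inhibition of 40% or more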;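 note: 0% = enzyme controls without compound and 100% = no-enzyme blanks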
Target sequence (Q9Y337 67-293 limits assumed): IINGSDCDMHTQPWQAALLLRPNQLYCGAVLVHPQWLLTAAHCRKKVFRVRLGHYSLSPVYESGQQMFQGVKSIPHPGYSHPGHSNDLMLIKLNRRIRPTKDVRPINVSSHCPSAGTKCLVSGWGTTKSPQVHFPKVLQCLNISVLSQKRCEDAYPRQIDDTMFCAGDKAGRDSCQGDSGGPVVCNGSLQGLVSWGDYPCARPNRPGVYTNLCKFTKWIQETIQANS
Cl transport mod – KCC2 (human) Cl- transport modulation | Q9H2X9 | KCC2 cells, thallium flux FluoZin-2 fluorescence | B-score of Tl+ flux slope (higher = more flux/activation; lower = inhibition) at 10 µM | hit rate 2.2% among 190,000;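 active = thallium flux slope and its plate-corrected score both differing from the plate sample mean at a set confidence after two filtering rounds, in either direction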;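 note: slope of fluorescence scaled to starting intensity during 10 to 20 s after thallium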
PERK inhibitor – blocks human PERK kinase; hit rate 0.17% among 220,000; CHO PERK-DD fusion, SEAP luminescence translation reporter; Q9NZJ5; AID 1416; inhibition, % at 5.6 µM;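 active = inhibition above the mean inhibition of all tested compounds plus 3 SD, set separately per screening campaign, cut at about 2.9% in these data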;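 note: PERK kinase domain activated by AP20187 dimerizer at 100 nM; 0% = DMSO with dimerizer and 100% = rapamycin at 8.4 µM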
Furin inhibitor – human furin inhibition. purified furin, fluorogenic substrate cleavage. inhibition, % at 30 µM. hit rate 0.061% among 220,000; in the data active = inhibition above about 25%; note: inactives centre near -15
Target sequence (P09958 108-714 limits assumed): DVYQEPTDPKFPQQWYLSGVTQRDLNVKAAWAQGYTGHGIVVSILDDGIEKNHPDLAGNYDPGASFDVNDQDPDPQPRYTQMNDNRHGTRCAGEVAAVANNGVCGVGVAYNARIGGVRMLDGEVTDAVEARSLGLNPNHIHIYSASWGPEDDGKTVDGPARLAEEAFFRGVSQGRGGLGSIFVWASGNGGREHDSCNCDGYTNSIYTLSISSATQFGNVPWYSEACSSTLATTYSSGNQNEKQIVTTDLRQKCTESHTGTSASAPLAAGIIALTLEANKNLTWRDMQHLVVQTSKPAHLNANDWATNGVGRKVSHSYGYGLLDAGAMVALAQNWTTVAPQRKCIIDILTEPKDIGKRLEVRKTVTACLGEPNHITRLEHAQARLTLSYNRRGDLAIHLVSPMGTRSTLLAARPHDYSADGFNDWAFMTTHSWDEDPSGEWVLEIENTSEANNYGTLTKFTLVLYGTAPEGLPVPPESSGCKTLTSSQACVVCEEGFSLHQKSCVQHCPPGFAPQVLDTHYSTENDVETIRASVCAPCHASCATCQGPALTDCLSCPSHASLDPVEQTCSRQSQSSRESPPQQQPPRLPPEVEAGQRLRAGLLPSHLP
Starred values were filed as active, the others as inactive; / = no result given; [ ] = dose if it differs, or a comment.

Every second line gives: Furin inhibitor	KLK5 inh	Rad51 HR inh	PERK inhibitor	Cl transport mod	thrombin 1536	Calpain2 inh
1) Cc1cc(C)n(C(=O)c2ccc([N+](=O)[O-])c(Cl)c2)n1
    -5	-14	-6	0.7	-0.44	-10	22
2) CCOC(=O)Nc1cccc(NC(=O)c2cc(OC)cc(OC)c2)c1
    -16[20 µM]	3	9	-0.8	0.0094	-4	19
3) CCc1ccc(C2C(C(=O)O)c3ccccc3C(=O)N2C)cc1 (stereo not given)
    -6[20 µM]	-12	-7	0.1	-0.33	-2	-1
4) CC(C)(C)N(Cc1ccccc1)C(=O)c1ccc2c(c1)OCCO2
    -15	4	4	0.1	-0.98	5	26
5) Cc1nn(-c2ccccc2)c2[nH]c(=O)c(CNCc3ccc4c(c3)OCO4)cc12
    -4	-7	-2	-1.3	-0.85	-10	-11
6) C=C(C)c1cccc(C(C)(C)NC(=O)NCC2COCCO2)c1 (stereo not given)
    -22	4	0	0.1	0.81	2	-20
7) COc1cc(CO)cc(-c2cc(CO)cc(OC)c2OC)c1OC
    -16[20 µM]	-17	-9	1.1	-0.28	-3	-34
8) CCCc1ccc(OCc2ccc(C(=O)N3CCN(c4ccccn4)CC3)o2)c(OC)c1
    -22[20 µM]	4	7	-0.1	-0.27	0	7
9) COc1ccc(OC)c(-c2csc(N3CCC(c4ccccc4)CC3)n2)c1
    -13	-3	-2	0.3	0.01	-3	-18
10) CN(C)CCCC(=O)c1ccc2c(c1)OCO2
    -7[20 µM]	-5	-1	0.5	1.2	0	11
11) Oc1ccccc1-c1nc(NCc2ccco2)c2ccccc2n1
    -16	3	8	-0.6	0.97	3	-34
12) COCCCN1C(=O)C(=O)/C(=C(/O)c2ccc(OC)cc2)C1c1ccc(O)c(OC)c1 (stereo not given)
    -18[20 µM]	-17	1	1.6	-0.21	6	9
13) COc1cccc(N/C(N)=N/c2nc(CSc3ccccn3)cc(=O)[nH]2)c1
    -14	4	1	1.1	-0.31	4	-3
14) COc1ccc2c(c1)Cc1sc(NC(=O)c3cccnc3)nc1-2
    -28	8	0	0.8	-1.3	-7	-39
15) O=S(=O)(Nc1nc2ccccc2nc1NCC1CCCO1)c1cccc(Cl)c1 (stereo not given)
    -15	-1	-14	0.5	-0.035	-2	11
16) COc1ccccc1C(=O)Oc1cc(N)n(S(=O)(=O)c2ccc(C)cc2)n1
    -15	15	-6	1.8	/	0	-38
17) Cc1cc(C(F)(F)F)c2c(n1)sc1c(O)cc(=O)[nH]c12
    -11[20 µM]	11	-3	0.0	/	-4	-40
18) COC(=O)C1=NN(c2ccc(C)cc2)C2C(=O)N(c3ccccc3OC)C(=O)C12 (stereo not given)
    -15	0	1	0.1	1.9	-6	-25
19) Cc1cccc(N2CCN(C(=O)c3ccc(CS(=O)(=O)c4ccccc4C)o3)CC2C)c1 (stereo not given)
    -10	-15	-38	-0.9	-0.98	-4	-1
20) CCn1c2ccccc2c2cc(NC(=O)COC(=O)c3cc(Cl)c(N)cc3OC)ccc21
    -13	0	-7	0.7	0.29	1	-59
21) CC(C)c1nc(NCC2CCCO2)c(C#N)c2c1COC(C)(C)C2 (stereo not given)
    -27[20 µM]	-8	3	-1.3	-0.95	4	-185
22) CC(=O)Nc1cccc(/C(C)=N/NC(=O)c2ccc(NS(=O)(=O)c3cccs3)cc2)c1
    -19	1	4	0.1	-0.16	1	-14
23) CCn1c(CNC(=O)Cc2ccc(OC)cc2)nnc1SCC(=O)Nc1ccc(C(=O)O)cc1
    -26	/	/	0.1	1.3	2	0
24) O=C(Cc1ccccc1)n1nc(-c2ccco2)nc1SCc1ccccc1
    -26[20 µM]	-16	-3	0.2	0.77	-3	20
25) CCOC(=O)N1CCC(C(N)=O)CC1
    -7	-6	1	2.2	-0.17	-3	6
26) O=C(CCN1CCCC1)c1cccs1
    -11	-1	-4	1.3	0.048	-4	28
27) CCOC(=O)c1sc(S(C)(=O)=O)c2c1CC(C)(C)C/C2=N/O
    -7	22	-5	-0.4	0.29	-8	-4
28) COC(=O)c1cnn(C(=O)c2cc(OC)ccc2Br)c1N
    -13	-12	-3	0.1	0.69	2	-30
29) CCOc1ccccc1-n1cnc(C#N)c1N
    -30	-11	15	0.5	-0.27	1	4
30) O=C(C1CC(c2ccc(F)cc2)=NO1)N1CCCCC1 (stereo not given)
    -11[20 µM]	11	2	-0.1	0.75	-3	0

Quoted from the listing.
For thrombin 1536, entry 24 has -3
For Rad51 HR inh, entry 29 has 15

The list goes on.
Every second line gives: Furin inhibitor	KLK5 inh	Rad51 HR inh	PERK inhibitor	Cl transport mod	thrombin 1536	Calpain2 inh
31) O=C(Oc1c(-c2ccccc2)c(=O)n2c3c(cccc13)CC2)c1ccco1
    -24	-2	8	1.3	-2.5	8	-13
32) O=C(CSc1nc(-c2ccco2)cc(C(F)(F)F)n1)Nc1ccccc1C(F)(F)F
    -12[20 µM]	-12	-1	-0.1	-0.43	-1	-30
33) CCN(CC)S(=O)(=O)c1cccc(NC(=O)COC(=O)/C=C/c2cccs2)c1
    4	2	4	-0.3	-3.4	-3	40
34) Cc1cccc(NC2SC(=O)N(CC(=O)O)C2=O)c1 (stereo not given)
    -18[20 µM]	-6	7	1.1	0.29	1	-6
35) COC(=O)c1ccc(C2/C(=C(\O)c3cccc(OC)c3)C(=O)C(=O)N2CCCN2CCOCC2)cc1 (stereo not given)
    -6	2	-7	0.8	-1.3	-3	17
36) COC(=O)c1ccc(OC(=O)c2ccccc2F)cc1
    -20	-12	1	0.8	-0.51	-8	-9
37) COc1ccc(C(=O)N2CCC(n3c(C)nc4cc(F)ccc43)CC2)cc1OC
    -21	-9	5	-1.4	0.86	3	-20
38) CCOC(=O)c1cc(C(=O)OCC)c2cccc(C)n2c1=O
    -11[20 µM]	-5	20	0.1	-0.75	2	-78
39) O=C(Nc1ccccc1N1CCCCC1)c1ncoc1-c1cccc(F)c1
    -12	6	2	1.9	0.87	-1	3
40) COc1cccc(N/C(SCc2cccc([N+](=O)[O-])c2)=C(/C#N)C(N)=O)c1
    -16	5	23	1.4	-0.44	-6	5
41) COC(=O)c1cc2ccsc2n1Cc1cc(=O)n2ccccc2n1
    -17	-13	-7	-0.1	/	-18	12
42) Cc1cc(N/N=C/c2ccc(F)cc2)nc(-n2nc(C)cc2C)n1
    -2	1	/	-1.8	-0.05	10	19
43) O=C(N(c1ccccn1)c1ccccn1)C12CC3CC(CC(C3)C1)C2
    -19	5	-7	-0.2	0.11	-13	-3
44) CCCCC(=O)Nc1ccc2c3c(cccc13)CC2
    -21	-5	-53	0.3	-0.85	-4	13
45) COc1ccc(OC)c(CN(CCN2CCOCC2)S(=O)(=O)c2ccc(NC(C)=O)cc2)c1
    -16	-1	8	-0.9	0.25	-2	-28

Sorted by count of non-hydrogen atoms (falling): some entries from above
Every second line gives: Furin inhibitor	KLK5 inh	Rad51 HR inh	PERK inhibitor	Cl transport mod	thrombin 1536	Calpain2 inh
45) COc1ccc(OC)c(CN(CCN2CCOCC2)S(=O)(=O)c2ccc(NC(C)=O)cc2)c1
    -16	-1	8	-0.9	0.25	-2	-28
39) O=C(Nc1ccccc1N1CCCCC1)c1ncoc1-c1cccc(F)c1
    -12	6	2	1.9	0.87	-1	3
43) O=C(N(c1ccccn1)c1ccccn1)C12CC3CC(CC(C3)C1)C2
    -19	5	-7	-0.2	0.11	-13	-3
41) COC(=O)c1cc2ccsc2n1Cc1cc(=O)n2ccccc2n1
    -17	-13	-7	-0.1	/	-18	12
36) COC(=O)c1ccc(OC(=O)c2ccccc2F)cc1
    -20	-12	1	0.8	-0.51	-8	-9
44) CCCCC(=O)Nc1ccc2c3c(cccc13)CC2
    -21	-5	-53	0.3	-0.85	-4	13

Among those listed so far, these have a nitro group on carbon:
Every second line gives: Furin inhibitor	KLK5 inh	Rad51 HR inh	PERK inhibitor	Cl transport mod	thrombin 1536	Calpain2 inh
1) Cc1cc(C)n(C(=O)c2ccc([N+](=O)[O-])c(Cl)c2)n1
    -5	-14	-6	0.7	-0.44	-10	22
40) COc1cccc(N/C(SCc2cccc([N+](=O)[O-])c2)=C(/C#N)C(N)=O)c1
    -16	5	23	1.4	-0.44	-6	5

(list continues)
Every second line gives: Furin inhibitor	KLK5 inh	Rad51 HR inh	PERK inhibitor	Cl transport mod	thrombin 1536	Calpain2 inh
46) COc1ccc(/C(O)=C2\C(=O)C(=O)N(c3cc(C)on3)C2c2ccc(OC)c(OC)c2)cc1OC (stereo not given)
    -4	6	-8	1.5	1.1	0	-6
47) CCCCOC(=O)Cn1c(-c2ccccc2)nc2ccccc2c1=O
    -25	-4	-44	0.5	0.61	-2	13
48) COc1cccc2sc(NNC(=O)C3=COCCO3)nc12
    -39	-27	/	0.6	-0.13	-3	-17
49) CCN(CC)C(=O)C1=C(C)Nc2nnnn2C1c1cccnc1 (stereo not given)
    -19[20 µM]	-5	-7	0.6	0.24	3	13
50) COc1ccccc1C(CCN(Cc1ccccc1)C(C)=O)c1ccco1 (stereo not given)
    -10	4	-76	-0.3	-2.2	2	33
51) CC(=O)N1CCc2cc(C(=O)CN3CCN(c4ccccn4)CC3)ccc21
    6	0	4	-0.8	-0.36	-7	25
52) CCN(CC)CCCn1c(C)cc2c(c1=O)C(c1cccc(Cl)c1)C(C#N)=C(N)O2 (stereo not given)
    -20	2	/	0.3	-0.038	2	-18
53) O=C(N/N=C/c1cccc(OC(=O)c2ccco2)c1)c1ccc(F)cc1
    -15	-10	/	1.2	0.0046	-2	-4
54) COc1ccc(C(=O)N2CCN=C2SCc2cccnc2)cc1OC
    -27	-17	5	-1.6	0.4	-5	10
55) Cc1onc(-c2ccccc2)c1C(=O)n1nnc2ccccc21
    -8[20 µM]	-4	0	0.4	-0.65	3	13
56) O=c1c2ccccc2nc(-c2ccccc2)n1CCCN1CCOCC1
    -5	10	-1	-1.4	0.27	-4	-6
57) O=C(N/N=C/c1ccc(Br)s1)c1ccccn1
    -1	-13	/	0.1	0.019	-5	6
58) Cc1sc2c(c1C)c(=O)n(-c1ccccc1)c1nncn21
    -27	-4	-6	1.3	0.16	-4	-19

This is a subset; count on the stated rates, not on these rows.
